# Source: PubChem
# YopH PTP inh: blocks Yersinia enterocolitica YopH tyrosine phosphatase; fluorescence Ex485/Em525; inhibition, %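 (about 10 µM by stock and volumes)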; hit rate 0.16% among 140,000;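 active = inhibition of 50% or more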;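 note: controls were vehicle for no effect and minimum signal wells for full effect; inactives centre near -20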
# Mtb betalactam: beta-lactam sensitization of Mtb H37Rv; M. tuberculosis H37Rv growth with meropenem, percent inhibition; hits of this screen are not shown here; inhibition, % at 25 µM; hit rate 0.27% among 330,000;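 active = about 74% or more and at least 40 points above the plate without the antibiotic, then above 30% in a dose series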;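 note: growth measured after seven days incubation then overnight dye step; 0% = bacteria only wells and 100% = bacteria with antibiotic; twin plates without the antibiotic show which effects depend on it; some results filed as inactive read as strong as hits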
# RecA splice inh: blocks M. tuberculosis RecA intein splicing; inhibition, %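 (about 9 µM by stock and volumes)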; cell-free RecA intein splicing, fluorescence; AID 2221; hit rate 0.75% among 290,000; in the data active = inhibition above about 30%;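 note: 0% = vehicle wells and 100% = reference inhibitor control wells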
# Target sequence (P9WHJ3 whole entry, looked up, canonical isoform): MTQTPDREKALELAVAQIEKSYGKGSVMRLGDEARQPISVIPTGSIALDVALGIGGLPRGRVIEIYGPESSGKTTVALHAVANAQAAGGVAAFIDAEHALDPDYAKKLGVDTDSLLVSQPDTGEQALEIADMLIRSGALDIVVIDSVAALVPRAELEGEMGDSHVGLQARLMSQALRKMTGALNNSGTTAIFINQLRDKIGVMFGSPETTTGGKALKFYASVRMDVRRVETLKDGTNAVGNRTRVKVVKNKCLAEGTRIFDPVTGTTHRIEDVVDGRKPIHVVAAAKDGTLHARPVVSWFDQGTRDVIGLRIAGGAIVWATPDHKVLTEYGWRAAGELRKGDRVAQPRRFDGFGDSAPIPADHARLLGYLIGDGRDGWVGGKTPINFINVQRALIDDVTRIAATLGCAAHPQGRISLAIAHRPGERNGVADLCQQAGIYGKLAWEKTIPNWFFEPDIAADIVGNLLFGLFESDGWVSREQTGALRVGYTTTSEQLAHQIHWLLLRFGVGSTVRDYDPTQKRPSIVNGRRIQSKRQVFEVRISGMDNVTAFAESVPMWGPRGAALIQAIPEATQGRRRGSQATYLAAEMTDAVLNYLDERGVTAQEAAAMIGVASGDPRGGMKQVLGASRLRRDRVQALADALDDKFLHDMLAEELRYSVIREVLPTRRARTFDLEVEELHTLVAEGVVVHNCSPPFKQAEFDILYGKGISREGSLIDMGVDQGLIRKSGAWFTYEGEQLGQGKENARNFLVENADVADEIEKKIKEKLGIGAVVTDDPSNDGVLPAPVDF
# Arbovirus inh: antivirals against arbovirus infection. arbovirus infection cell-based antiviral screen. AID 1251. inhibition, % at 10 µM. hit rate 0.37% among 200,000;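 active = inhibition from about 30%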;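 note: bluetongue infection of BSR cells; cell survival read as ATP light after 72 h; 0% = infected wells without compound and 100% = uninfected wells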
# Mtb H37Rv: M. tuberculosis H37Rv growth inhibitors, H37Rv strain (AID 1626); M. tuberculosis H37Rv growth inhibition; higher % means a stronger effect; hit rate 0.95% among 220,000; one-dose inhibition, % at 10 µM; IC50 in µM for titrated hits;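 active = confirmed in a dose series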;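 note: bacteria incubated seven days before Alamar blue readout; 0% = bacteria only wells and 100% = bacteria with antibiotic wells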
# Arbovirus inh repeat: further read-out of Arbovirus inh, marked with its call; inhibition, %; measured here: 10K subset replicate screen; many hits read low in the repeat;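 first of two repeat runs on a subset; 0% = infected and 100% = uninfected wells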
# * hit, by the source's call; . = no result given. This is a subset, so the mix of outcomes need not match the whole.
SMILES,YopH PTP inh,Mtb betalactam,RecA splice inh,Arbovirus inh,Mtb H37Rv,others
COc1cc2c(cc1OC)C(c1ccccc1)N(C(=O)CSCC(=O)O)CC2 (stereo not drawn),.,-3,-0.3,6,-2%,
CCCCCC1CC(COc2ccccc2)OC1=O (stereo not drawn),.,4,1.1,.,.,
Cc1ccc(S(=O)(=O)Nc2nc(C)c(C(=O)Nc3ccccc3)s2)cc1,-21,7,-0.6,8,-1%,
COc1cc(OC)cc(-c2nc(SCC(=O)Nc3ccccc3F)n[nH]2)c1,.,7,0.4,.,.,
COc1ccc(CCNC(=S)Nc2cccc3ccccc23)cc1,-8,-4,5.3,5,13%,
O=C(O)c1cccc(S(=O)(=O)Nc2ccccc2-c2ccccc2)c1,.,-4,-2.5,0,-12%,
N#CC1=C(N)N(c2ccccc2)C2=C(C(=O)CCC2)C1c1ccccc1 (stereo not drawn),-18,-7,2.1,5,-8%,
COc1ccc(NC(=O)CSC2CC(=O)N(c3ccc4c(c3)OCCO4)C2=O)cc1 (stereo not drawn),-44,-12,.,5,-4%,
O=C(c1ccc2snnc2c1)N1CCOCC1,-8,9,4.3,2,-12%,Arbovirus inh repeat=0
CC(C)C[C@H](NC(=O)c1nc[nH]c1C(=O)N1CCNCC1)C(=O)OCc1ccccc1,.,0,-1.1,.,.,
O=C(NNC(=O)c1ccc2ncccc2c1)c1ccc(Cl)cc1,.,-5,.,2,-3%,
CCOC(=O)C1CCN(C(=O)CCC(=O)NNc2nc3ccccc3c3nc(C)nn23)CC1,.,3,-3.6,.,.,
O=S(=O)(c1ccc2oc(=S)[nH]c2c1)N1CCCCC1,.,-7,0.0,.,-6%,
O=C(Nc1cccc(Cl)c1)Nc1sccc1-c1nc2ccccc2s1,.,6,6.8,.,8%,
COc1ccc(-c2cc(C(=O)Nc3cc(C)ccc3O)no2)cc1,.,15,7.4,.,.,
COc1cccc(-n2cnc3cccc(N)c32)c1,-24,2,0.7,1,-6%,
Cc1nn(C)c(C)c1NC(=O)/C(C#N)=C\N(C)C,.,-6,-0.3,.,-8%,
COC(=O)c1scc(C)c1NC(=O)CSc1ccc(Cl)cc1,.,-4,1.6,.,3%,
Cc1ccc(C(=O)O/N=C(\c2ccccc2)c2ccncc2)cc1,.,68,2.3,5,.,
O=C(NCc1ccc(F)cc1)c1noc2c1CCCCC2,-22,.,2.6,-4,-4%,
Cc1csc(SCC(=O)N(C)c2c(N)n(Cc3ccccc3)c(=O)[nH]c2=O)n1,.,1,1.5,9,-5%,
O=C(CN1CCOCC1)Nc1nc2ccc(Br)cc2s1,-22,13,-1.4,-8,-3%,
C=CCN(c1ccc(C(=O)Nc2ccc3c(c2)OCO3)cc1)S(C)(=O)=O,.,-10,1.8,-5,-4%,
CCOc1ccc(CCNC(=O)COC(=O)C2CCN(S(=O)(=O)c3ccc(C)c(C)c3)CC2)cc1OCC,.,-16,-1.8,.,.,
O=C(CSc1nnnn1-c1cccc2ccccc12)Nc1ccc(N2CCOCC2)c(Cl)c1,-2,-4,-1.9,-17,7%,
CCC(=O)N1c2ccc(S(=O)(=O)NCCc3ccc(OC)c(OC)c3)cc2CC1C (stereo not drawn),.,2,1.2,.,.,
CCc1c(C)nc2ncnn2c1N1CCC(C(=O)Nc2cccc(C(C)=O)c2)CC1,-51,-7,0.4,-4,0%,
O=C(Nc1ccc(Nc2ccncc2)cc1)c1ccc(Nc2ccnc3ccc([N+](=O)[O-])cc23)cc1,.,.,-0.1,.,-3%,
CCc1nnc(NC(=O)CSC(=S)N2CCOCC2)s1,.,-11,-0.4,.,.,
O=C(CCN1C(=O)C2C3CCC(C3)C2C1=O)Nc1ccc(Br)cc1 (stereo not drawn),-16,-4,-0.4,-10,-6%,
CC(CCC(=O)Nc1nncs1)C(=O)O (stereo not drawn),-3,0,0.6,4,0%,Arbovirus inh repeat=1
CN(C)c1nc(-c2ccccc2)nnc1C(F)(F)F,-5,-4,-3.0,-4,1%,
Oc1ccc(-c2nncn2-c2ccccc2)cc1,.,0,0.2,0,1%,
S=C(NCc1ccc(Cl)cc1)NC1CCCCC1,-31,-1,5.9,6,14%,
Cn1ccsc1=NC(=O)c1ccc(OC(F)(F)F)cc1,.,5,2.7,.,.,
COc1ccc(C)cc1N(CC(=O)NC1CCCC1)C(=O)CCC(=O)Nc1nc(C)cs1,.,-4,2.3,.,.,
CCc1ccc(NC(=O)NCCN2CCN(c3ccc(OC)cc3)CC2)cc1,.,3,-1.3,.,.,
Cc1ccc(-c2nnn(CC(=O)Nc3cccc4c3CCCC4)n2)o1,-29,-5,0.9,-12,-7%,
Nc1ccc(C(=O)OCC(=O)N2CCN(C(=O)c3ccco3)CC2)cc1[N+](=O)[O-],-13,-9,-1.1,-8,3%,
CCOC(=O)N1CCC(NS(=O)(=O)c2ccc(C#N)cc2)CC1,.,-3,0.9,.,7%,
CCN(CC)S(=O)(=O)c1ccc(N2CCCCC2)c(NC(=O)c2ccncc2)c1,.,3,2.2,-5,-8%,
CCCC(=O)NCCCc1nc2ccccc2n1CC,-33,-3,1.3,4,-1%,Arbovirus inh repeat=-1
Cc1nn(CC#N)c(=O)n1-c1ccc(C(C)C)cc1,.,-6,-1.2,9,5%,
Cc1ccc(N2C(=O)/C(=C/N3CCN(C(=O)c4ccco4)CC3)C(=O)NC2=S)cc1C,-9,1,0.1,14,2%,
CCOC(=O)C1(Cc2cccc(F)c2)CCN(Cc2cn(CC)nc2C)CC1,.,1,0.9,0,6%,

# Not a retest: 23 of the compounds above.
SMILES,YopH PTP inh,Mtb betalactam,RecA splice inh,Arbovirus inh,Mtb H37Rv,others
O=C(NCc1ccc(F)cc1)c1noc2c1CCCCC2,-22,.,2.6,-4,-4%,
Cc1csc(SCC(=O)N(C)c2c(N)n(Cc3ccccc3)c(=O)[nH]c2=O)n1,.,1,1.5,9,-5%,
O=C(CN1CCOCC1)Nc1nc2ccc(Br)cc2s1,-22,13,-1.4,-8,-3%,
C=CCN(c1ccc(C(=O)Nc2ccc3c(c2)OCO3)cc1)S(C)(=O)=O,.,-10,1.8,-5,-4%,
CCOc1ccc(CCNC(=O)COC(=O)C2CCN(S(=O)(=O)c3ccc(C)c(C)c3)CC2)cc1OCC,.,-16,-1.8,.,.,
O=C(CSc1nnnn1-c1cccc2ccccc12)Nc1ccc(N2CCOCC2)c(Cl)c1,-2,-4,-1.9,-17,7%,
CCC(=O)N1c2ccc(S(=O)(=O)NCCc3ccc(OC)c(OC)c3)cc2CC1C (stereo not drawn),.,2,1.2,.,.,
CCc1c(C)nc2ncnn2c1N1CCC(C(=O)Nc2cccc(C(C)=O)c2)CC1,-51,-7,0.4,-4,0%,
O=C(Nc1ccc(Nc2ccncc2)cc1)c1ccc(Nc2ccnc3ccc([N+](=O)[O-])cc23)cc1,.,.,-0.1,.,-3%,
CCc1nnc(NC(=O)CSC(=S)N2CCOCC2)s1,.,-11,-0.4,.,.,
O=C(CCN1C(=O)C2C3CCC(C3)C2C1=O)Nc1ccc(Br)cc1 (stereo not drawn),-16,-4,-0.4,-10,-6%,
CC(CCC(=O)Nc1nncs1)C(=O)O (stereo not drawn),-3,0,0.6,4,0%,Arbovirus inh repeat=1
CN(C)c1nc(-c2ccccc2)nnc1C(F)(F)F,-5,-4,-3.0,-4,1%,
Oc1ccc(-c2nncn2-c2ccccc2)cc1,.,0,0.2,0,1%,
S=C(NCc1ccc(Cl)cc1)NC1CCCCC1,-31,-1,5.9,6,14%,
Cn1ccsc1=NC(=O)c1ccc(OC(F)(F)F)cc1,.,5,2.7,.,.,
COc1ccc(C)cc1N(CC(=O)NC1CCCC1)C(=O)CCC(=O)Nc1nc(C)cs1,.,-4,2.3,.,.,
CCc1ccc(NC(=O)NCCN2CCN(c3ccc(OC)cc3)CC2)cc1,.,3,-1.3,.,.,
Cc1ccc(-c2nnn(CC(=O)Nc3cccc4c3CCCC4)n2)o1,-29,-5,0.9,-12,-7%,
Nc1ccc(C(=O)OCC(=O)N2CCN(C(=O)c3ccco3)CC2)cc1[N+](=O)[O-],-13,-9,-1.1,-8,3%,
CCOC(=O)N1CCC(NS(=O)(=O)c2ccc(C#N)cc2)CC1,.,-3,0.9,.,7%,
CCN(CC)S(=O)(=O)c1ccc(N2CCCCC2)c(NC(=O)c2ccncc2)c1,.,3,2.2,-5,-8%,
CCCC(=O)NCCCc1nc2ccccc2n1CC,-33,-3,1.3,4,-1%,Arbovirus inh repeat=-1

# Sorted by number of heavy atoms (falling): some entries from above.
SMILES,YopH PTP inh,Mtb betalactam,RecA splice inh,Arbovirus inh,Mtb H37Rv,others
O=C(Nc1cccc(Cl)c1)Nc1sccc1-c1nc2ccccc2s1,.,6,6.8,.,8%,
CCCC(=O)NCCCc1nc2ccccc2n1CC,-33,-3,1.3,4,-1%,Arbovirus inh repeat=-1
O=S(=O)(c1ccc2oc(=S)[nH]c2c1)N1CCCCC1,.,-7,0.0,.,-6%,
S=C(NCc1ccc(Cl)cc1)NC1CCCCC1,-31,-1,5.9,6,14%,

# (listing goes on)
SMILES,YopH PTP inh,Mtb betalactam,RecA splice inh,Arbovirus inh,Mtb H37Rv,others
Cc1cccc(NC(=O)C23CCC(C)(C(=O)O2)C3(C)C)c1 (stereo not drawn),.,1,0.4,4,4%,
COc1ccccc1N(CC(O)COc1ccccc1)S(=O)(=O)c1ccccc1 (stereo not drawn),-11,3,-1.8,0,2%,
COC(=O)C[C@H]1c2cc(C(F)(F)F)ccc2S(=O)(=O)N1Cc1ccccc1OC,.,-1,2.0,.,-6%,
CC(=O)Nc1ccc(NC(=O)COc2cc(O)c3c(c2)OC(C)(C)CC3=O)cc1,.,-5,7.9,.,.,
CC(C)CN(C(=O)CCC(=O)OCC(=O)NCCc1ccccc1)c1c(N)n(CC(C)C)c(=O)[nH]c1=O,.,-6,1.1,.,.,
O=C(CSc1nc2ccc(S(=O)(=O)N3CCOCC3)cc2[nH]1)N1CCOCC1,-3,7,1.8,-3,-7%,
CC(C)CSc1nc2c(c(=O)[nH]c(=O)n2C)n1CC(O)COc1cccc2ccccc12 (stereo not drawn),-30,.,0.8,2,5%,
COC(=O)CC1=C(C(=O)OC)[C@@H](c2ccccc2[N+](=O)[O-])C(C#N)=C(N)O1,.,-12,-24,.,-14%,
CC(C)(C)c1ccccc1OCCN1CCCC1,-40,15,0.9,16,-1%,
CC(=O)Nc1cccc(S(C)(=O)=O)c1,-22,-4,0.1,1,1%,
CCOC(=O)N1CCN(C(=O)c2cc(COc3ccc(Cl)cc3OC)on2)CC1,.,2,0.8,.,.,
CCOc1ccc(CNC(=O)CCCc2cn(C)c3ccccc23)cc1,.,-2,-1.1,.,.,
CCOC(=O)c1c(NC(=O)c2nn(CC)cc2Br)sc2c1CCCCC2,-15,0,12,-1,13%,
COc1ccc(/C(O)=C2/C(=O)C(=O)N(CCN(C)C)C2c2ccccn2)cc1OC (stereo not drawn),-13,-10,2.8,12,1%,
CC(=O)NS(=O)(=O)c1ccc(NC(=O)c2cc(-c3cccs3)nc3ccccc23)cc1,-2,20,1.5,4,4%,
Cc1cccc(NC(=O)Cn2c(=O)n(CCC(=O)NC3CCCC3)c(=O)c3ccccc32)c1,-14,-9,-7.1,-2,-9%,
COCCN(CC(=O)NCc1ccc(OC)cc1)C(=O)CCC(=O)Nc1nccs1,-27,-4,10,2,7%,
NC(=O)c1cc(Br)cc(C2CCCCC2)c1O,.,8,6.4,.,5%,
COc1ccc(NC(=O)CCS(=O)(=O)c2ccc3c(c2)CCN3C(C)=O)cc1,.,8,-2.4,.,.,
O=C(CCc1nc2ccccc2s1)OCc1ccccc1,-15,86,4.6,-6,33%,
COc1ccc(NC2c3ncccc3C(=O)N2Cc2cccs2)cc1 (stereo not drawn),.,2,6.0,-6,-7%,
O=C(NC1(C(F)(F)F)NC(=O)N(Cc2ccco2)C1=O)c1cccnc1 (stereo not drawn),-21,0,0.9,5,6%,
O=C(CN1CCCCC1)Nc1cccc([N+](=O)[O-])c1,-1,-2,1.5,4,6%,
COc1ccccc1OCCC(=O)OCC(=O)c1c(N)n(C)c(=O)n(C)c1=O,.,-7,-1.0,2,3%,
COc1ccc(/C=N/NC(=O)CCc2c(C)n[nH]c2C)cc1OC,17,2,1.3,-3,-14%,
CCN(CC(=O)Nc1ccc(N2CCOCC2)cc1)CC(=O)NC(C)(C)C,.,-2,-3.1,1,1%,
Cc1ccc(NC(=O)CN(C)C(=O)COC(=O)CNS(=O)(=O)c2ccc(Br)cc2Cl)cc1,.,14,-1.2,.,.,
O=C(Cc1ccc(F)cc1)OCN1C(=O)c2ccccc2C1=O,.,7,-0.6,.,.,
C=CCOc1ccc(C2C(C(=O)c3ccco3)=C(O)C(=O)N2c2nnc(C)s2)cc1 (stereo not drawn),.,-9,-2.5,-5,-14%,
CS/C(N)=N/N=C/c1cc(Br)cc(Br)c1O,.,.,-1.1,.,2%,
CCOc1ccc(C(CCc2ccccc2)NC(=O)c2ccc(OC)c(OC)c2)cc1OCC (stereo not drawn),-20,-6,2.0,4,4%,
